# Assay outcomes from PubChem BioAssay.
# FGF22 binding = binders of human FGF22 protein, primary screen, FGF22 synaptogenesis inhibitor project, biophysical, thermal shift, single point; Fibroblast growth factor 22 (Homo sapiens), Q9HCT0; recombinant FGF22 thermal shift, SYPRO orange fluorescence; percent of sucrose octasulfate shift, DMSO zero; calls only at 9.99 µM; 340,000 compounds, 1.5% hits; AID 651658, 2012;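 active = melting point raised past a set limit in the mean and every replicate; inconclusive = no clear call; three in four hits are not shown here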
# Target sequence (Q9HCT0 whole entry, looked up): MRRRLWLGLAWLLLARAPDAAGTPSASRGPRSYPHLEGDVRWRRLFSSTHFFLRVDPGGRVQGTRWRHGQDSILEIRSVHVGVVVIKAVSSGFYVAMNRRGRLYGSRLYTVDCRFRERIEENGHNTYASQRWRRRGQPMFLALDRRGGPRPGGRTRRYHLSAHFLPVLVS
# ALR inh = inhibitors of human ALR sulfhydryl oxidase, primary screen, biochemical, H2O2 detection, HRP-luminol luminescence, single point; FAD-linked sulfhydryl oxidase ALR (Homo sapiens), P55789; purified ALR, DTT oxidation; inhibition, % (concentration not given with the values); 290,000 compounds, 3.8% hits;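 active = mean and each replicate at 75% or more; inconclusive = only one of the two met; inactive = neither met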;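 note: stock transfer was 7.5 nL into about 7.5 µL; 0% = neutral wells and 100% = wells with inactivated enzyme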
# Target sequence (P55789 whole entry, looked up): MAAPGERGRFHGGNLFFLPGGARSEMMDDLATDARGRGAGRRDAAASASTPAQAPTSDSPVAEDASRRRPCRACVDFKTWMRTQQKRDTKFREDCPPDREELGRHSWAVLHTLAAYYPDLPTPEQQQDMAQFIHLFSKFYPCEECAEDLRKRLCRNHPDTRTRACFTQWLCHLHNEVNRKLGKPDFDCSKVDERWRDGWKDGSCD
# HNF4A DNA FP = change in binding of human HNF4A to DNA, primary screen, biochemical, fluorescence polarization, FITC-DNA. 360,000 compounds, 0.3% hits. activity change, % at 10 µM. 1 h. AID 1224865, 2016; in the data active = activity change above about 30%, passing the limit was not always enough;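 note: controls were the assay level and a saturating level of protein; the project sought stronger binding though the title names inhibitors; some compounds called inactive have numbers as strong as hits; positive values seem to mean higher polarization but the record does not say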
# Target sequence (P41235 whole entry, looked up): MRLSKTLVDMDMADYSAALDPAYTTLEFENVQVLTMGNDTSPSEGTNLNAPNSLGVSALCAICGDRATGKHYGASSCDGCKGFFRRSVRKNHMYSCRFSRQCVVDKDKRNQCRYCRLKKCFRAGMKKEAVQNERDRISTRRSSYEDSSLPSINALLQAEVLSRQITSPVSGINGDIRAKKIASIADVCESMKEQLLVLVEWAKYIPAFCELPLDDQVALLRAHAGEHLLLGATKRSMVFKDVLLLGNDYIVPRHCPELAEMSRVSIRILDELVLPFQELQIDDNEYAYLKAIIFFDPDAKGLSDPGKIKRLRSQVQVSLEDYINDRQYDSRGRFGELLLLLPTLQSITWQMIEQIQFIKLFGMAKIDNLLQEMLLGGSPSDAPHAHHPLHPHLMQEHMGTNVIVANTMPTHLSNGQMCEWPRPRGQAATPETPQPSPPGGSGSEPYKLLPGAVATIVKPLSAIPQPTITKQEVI
# Ecoli growth = E. coli growth inhibition, primary screen, OD600. Escherichia coli growth, 23 h; stronger effect = lower value. OD600 absorbance (no concentration beside the values). 330,000 compounds, 0.21% hits. AID 1053175, 2014;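 active = OD600 absorbance below the run mean of sample wells minus 3.6 SD, in any replicate, cut at about 0.56 in these data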;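 note: stock transfer was 300 nL into about 60 µL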
# MLL AF4-AF9 inh = inhibitors of AF4 peptide binding to AF9, primary screen, biochemical, AlphaScreen, biotin-AF4 peptide, FLAG-AF9, single point | Protein AF-9 (Homo sapiens), P42568 | inhibition, % at 10 µM | 350,000 compounds, 0.47% hits | AID 651704, 2012;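 active = every replicate reaching a set inhibition limit, whatever the replicate mean, cut at about 25% in these data; inconclusive = mean inhibition reaches that limit but some replicates miss it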;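 note: 0% = plate neutral control median and 100% = total signal loss; the record names both 10 and 1 µM as test concentration; the first replicate is given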
# rRNA inh HTS = reduced GFP signal of wild-type E. coli, primary screen, bacterial rRNA inhibitor project, GFP/RFP fluorescence, OD600, single point; E. coli WT GFP vs humanized-ribosome RFP mutants, 24 h; stronger effect = lower value; DMSO median 0, no signal -100; GFP signal change (wild-type ribosome), % (concentration not given with the values); 350,000 compounds, 1.6% hits;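 active = significant combined selectivity score with lowered wild-type GFP, culture density cut under 30%, mutant RFP and density less affected; inactive = any of these conditions unmet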; note: one replicate is shown; some compounds called inactive have numbers as strong as hits
# Vif TR-FRET = inhibitors of Vif binding to APOBEC3G peptide, primary screen, biochemical, TR-FRET, GST-Vif 1-94, biotin-A3G peptide, dose response retest (AID 1117319); Virion infectivity factor (Human immunodeficiency virus type 1 group M subtype B (isolate …; TR-FRET GST-Vif / biotin-A3G peptide binding; higher % means a stronger effect; test concentration not given here; strong numbers were not always called active; inhibition, %; hits with a dose series show IC50 in µM; 260,000 compounds, 0.57% hits;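 active = above the screen mean plus three standard deviations and confirmed in dose response; inconclusive = results disagree or hit not tested in dose response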;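 note: Vif residues 1-94 fused to GST binding biotinylated APOBEC3G peptide 110-148; 0% = full assay without inhibitor and 100% = GST in place of GST-Vif; retest series ran down from 100 µM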
# rRNA inh HTS OD600 = further read-out of rRNA inh HTS, marked with its call; OD600 change, %; measured here: OD600 growth;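 optical density of the mix in the first replicate; 0 = DMSO median and -100 = no signal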
# rRNA inh HTS RFP = also measured in rRNA inh HTS; calls as there; RFP signal change, %; measured here: RFP humanized mutant strains;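 first replicate; 0 = DMSO median and -100 = no signal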
# * marks the source's active call; other numbers are inactive results; i = inactive; ? = inconclusive; / = not tested or not shown; & = joins results of further samples.
no.	SMILES	FGF22 binding	ALR inh	HNF4A DNA FP	Ecoli growth	MLL AF4-AF9 inh	rRNA inh HTS	rRNA inh HTS OD600	rRNA inh HTS RFP	Vif TR-FRET
1	CCOc1ccc(CCNC(=O)COC(=O)c2cc(S(=O)(=O)N3CCOCC3)ccc2F)cc1OCC	i	-11	0.4	/	1.8	6	-2	1.3	/
2	CCSCc1nnc(SCC(=O)Nc2cccc(SC)c2)n1C	/	98*	-3.1	0.7	/	/	/	/	9%
3	C[C@H](CO)N1C[C@H](C)[C@@H](CN(C)Cc2ccc3c(c2)OCO3)Oc2c(NC(=O)C3CCCCC3)cccc2C1=O	i	-3	-0.1	0.76	5.7&4.4	-3&-12	-2&-34	-2.5&7.6	/
4	Cc1cc(/C=N/NC(N)=S)c(C)n1-c1ccc(Cl)cc1	/	-3	-1.4	/	/	/	/	/	25%
5	COc1ccc2c(c1)[nH]c1c(=O)n(CCCn3ccnc3)cnc12	/	-5	-0.2	0.7	/	-7	-12	1.1	-2%
6	O=C(NNS(=O)(=O)c1ccc(Cl)cc1)c1cccs1	i	40	-1.8	0.64	-1.4	11	3	-2.8	-1%
7	CC(CCc1ccccc1)NC(=O)C(=O)Nc1ccccc1 (configuration not stated)	/	/	3.5	0.69	/	/	/	/	-7%
8	C=CCn1c(C)c(C(C)=O)cc(NC(=O)c2ccccc2)c1=O	i	3	-2.3	0.67	-0.3	5	0	2.7	5%
9	CCN1C(=O)c2cccc3c(Cl)ccc1c23	i	-11	-1.7	0.63	-0.2	-10	-5	-6.2	23%
10	Cc1ccc(S(=O)(=O)N(C)C[C@@H]2OCCCC[C@H](C)Oc3ccc(N(C)C)cc3C(=O)N([C@@H](C)CO)C[C@H]2C)cc1	i	/	/	/	2.8	-5	3	0.4	/
11	COc1ccc(NC(=O)c2cccc(S(=O)(=O)N(C)c3ccccc3)c2)cn1	i	1	2.9	0.64	-7.2	-7	4	6.7	2%
12	Cc1cc(NC(=O)CSc2nc3cc(C(=O)NCCCOC(C)C)ccc3c(=O)n2Cc2ccco2)no1	i	-20	2.6	0.73	0.4	9	15	0.7	/
13	O=C(OCc1c(-c2ccccc2)ncc2ccccc12)c1ccc(F)cc1	i	-1	3.7	0.68	-1.5	-10	-20	0.9	/
14	Cc1noc(C)c1S(=O)(=O)Nc1ccc2c(c1)C(=O)N([C@@H](C)CO)C[C@@H](C)[C@H](CN(C)Cc1ccc(C(=O)O)cc1)OCCCC[C@H](C)O2	i	/	/	/	-15	4	9	0.4	/
15	Cc1cc(C)nc(NS(=O)(=O)c2ccc(NC(=O)CN3C(=O)S/C(=C\c4ccccc4)C3=O)cc2)n1	/	1	-2.5	0.73	/	/	/	/	18%
16	COc1ccccc1NS(=O)(=O)c1ccc(C)c(C(=O)NNC(=O)c2csc(N3CCOCC3)n2)c1	i	-7	-5.1	/	1.1	-2	4	3.5	/
17	COc1ccc(CSc2nc3ccccc3[nH]2)cc1	/	-8	-2.1	0.68	/	/	/	/	2%
18	COc1ccc(CNC(=O)CSc2n[nH]c(N)n2)cc1OC	i	4	-0.7	0.67	-0.4	-30	-52	-4.3	/
19	O=C1c2oc3ccccc3c(=O)c2C(c2cccnc2)N1CCCN1CCOCC1 (configuration not stated)	/	3	0.6	0.76	/	7	12	-2.3	?
20	CO/N=C\CC(=O)Nc1ccc(Cl)c(Cl)c1	i	-5	-2.1	/	-2.0	-19	-20	-3.9	-8%
21	C[C@@H]1CN([C@H](C)CO)C(=O)c2cccc(NS(=O)(=O)c3ccccc3)c2O[C@@H]1CN(C)C(=O)Nc1ccc(F)cc1	i	/	/	/	-0.9	3	12	-3.1	/
22	CCCC(=O)Nc1ccc2c(c1)C(=O)N(C)[C@@H]1CC[C@H](CC(=O)NCCc3ccccc3)O[C@@H]1CO2	i	/	/	/	-2.5	2	-1	-0.2	/
23	CC(C)NC(=O)NCC[C@@H]1CC[C@H](NC(=O)c2ccc(F)cc2)[C@H](CO)O1	i	/	/	/	1.5	3	9	-1.9	/
24	Fc1cccc(Cl)c1Cn1nnc2c(NCc3ccccn3)ncnc21	/	0	-1.1	0.75	/	/	/	/	12%
25	COc1ccccc1C(C)NC(=O)C1CCN(S(=O)(=O)c2cccs2)CC1 (configuration not stated)	i	-6	2.4	0.68	1.0	-1	-9	-2.1	-7%

# A different layout for part of the listing above.
# Order of values – FGF22 binding | ALR inh | HNF4A DNA FP | Ecoli growth | MLL AF4-AF9 inh | rRNA inh HTS | rRNA inh HTS OD600 | rRNA inh HTS RFP | Vif TR-FRET
14: Cc1noc(C)c1S(=O)(=O)Nc1ccc2c(c1)C(=O)N([C@@H](C)CO)C[C@@H](C)[C@H](CN(C)Cc1ccc(C(=O)O)cc1)OCCCC[C@H](C)O2
 : i | / | / | / | -15 | 4 | 9 | 0.4 | /
15: Cc1cc(C)nc(NS(=O)(=O)c2ccc(NC(=O)CN3C(=O)S/C(=C\c4ccccc4)C3=O)cc2)n1
 : / | 1 | -2.5 | 0.73 | / | / | / | / | 18%
16: COc1ccccc1NS(=O)(=O)c1ccc(C)c(C(=O)NNC(=O)c2csc(N3CCOCC3)n2)c1
 : i | -7 | -5.1 | / | 1.1 | -2 | 4 | 3.5 | /
17: COc1ccc(CSc2nc3ccccc3[nH]2)cc1
 : / | -8 | -2.1 | 0.68 | / | / | / | / | 2%
18: COc1ccc(CNC(=O)CSc2n[nH]c(N)n2)cc1OC
 : i | 4 | -0.7 | 0.67 | -0.4 | -30 | -52 | -4.3 | /

# Carrying on.
no.	SMILES	FGF22 binding	ALR inh	HNF4A DNA FP	Ecoli growth	MLL AF4-AF9 inh	rRNA inh HTS	rRNA inh HTS OD600	rRNA inh HTS RFP	Vif TR-FRET
26	CCn1ncc(C2=NOC(C(=O)Nc3cccc(C(C)=O)c3)C2)c1C (configuration not stated)	/	97*	3.2	0.65	/	/	/	/	1%
27	CN(C)S(=O)(=O)c1ccc(Cl)c(C(=O)Nc2cccc3ncccc23)c1	i	-2	-4.2	0.67	2.8	9	7	3.0	-3%
28	O=C(COc1ccc(C(=S)N2CCCC2)cc1)Nc1ccc(F)cc1	i	-5	2.1	0.71	0.3	-15	-13	0.2	/
29	COc1ccc(NC(=O)Cc2ccsc2)cc1S(=O)(=O)N1CCCCC1	i	-4	1.1	0.63	3.4	-10	-10	4.2	-8%
30	COc1ccc(-c2cc(C(F)(F)F)n3nc(C(=O)Nc4c(C)n(C)n(-c5ccccc5)c4=O)c(Cl)c3n2)cc1	i	0	2.5	0.7	-0.2	8	3	2.1	7%
31	COc1ccc(OC)c(CCNC(=O)c2cccc(NC(=O)C3=C(C)OCCS3)c2)c1	i	-8	-0.5	0.66	-6.5	-3	-19	-3.0	-2%
32	Cc1cccc(N2CCN(C(=O)COc3ccc4c(c3)CCC4)CC2C)c1 (configuration not stated)	i	/	2.9	0.7	2.3	1	-34	7.3	/
33	CSCCC(=O)N1CC[C@@H](N2CCN(c3ccccc3F)CC2)[C@H](O)C1	i	7	3.3	0.68	-6.3	19	11	-0.7	/
34	CC1(C)S[C@@H]2[C@H](NC(=O)Cc3ccccc3)C(=O)N2[C@H]1C(=O)O	i	-18&2	2.9&3.2	0.66	4.3&1.6&0.6	14&10	15&14	0.4&2.9	-3%&-1%
35	CS(=O)(=O)N(CC(=O)Nc1ccc2c(c1)OCO2)c1ccccc1	/	-1	-0.4	0.66	/	4	6	0.9	-2%
36	CCc1ccccc1N(C(=O)c1snc(C(N)=O)c1N)C(C(=O)NCC1CCCO1)c1ccc(OC)c(OC)c1 (configuration not stated)	i	/	1.8	0.68	-1.5	8	4	-2.1	1%
37	COc1ccc(S(=O)(=O)N(C)C[C@@H]2Oc3ccc(NS(=O)(=O)c4cn(C)cn4)cc3CC(=O)N([C@@H](C)CO)C[C@H]2C)cc1	i	/	/	/	-0.8	2	0	-0.4	/
38	Cc1cc(C)nc(NC2=NCCN2C(=S)Nc2ccc(C)c(C)c2)n1	i	10	-8.7	0.69	-2.7	-1	-7	-0.2	26%
39	COc1ccc(S(=O)(=O)NC(=O)C2(C)CCN2C(=O)CC2CCCCC2)cc1OC (configuration not stated)	i	/	1.3	/	0.5	/	/	/	/
40	O=C(NC1CCc2ccccc21)c1cc(COc2cncc(Cl)c2)on1 (configuration not stated)	i	-5	6.5	0.7	0.7	-29	-35	-7.5	/
41	CCCNC(=O)[C@@H]1[C@@H](CO)[C@@H]2Cn3c(ccc(-c4cccnc4)c3=O)[C@@H]2N1C(=O)c1ccccc1F	i	/	/	/	-0.9	-1	-3	-2.5	/
42	COC(=O)Cc1ccc(NC(=S)N2CCN(c3ccccn3)CC2)cc1	i	7	3.6	0.69	-2.2	-11	-12	-8.7	/
43	COc1ccc(C2Nc3ccccc3C(=O)N2NC(C)=O)c(OC)c1 (configuration not stated)	i	-7	1.1	0.7	-1.2	15	16	5.5	-5%
44	CCC(=O)N1CCCCN2[C@H](CO)[C@@H](c3ccc(C#Cc4cccnc4)cc3)[C@@H]2C1	i	/	/	/	-6.3	-4	-3	-0.7	/
45	Cc1ccc(S(=O)(=O)N2[C@@H](c3ccc(C(C)(C)C)cc3)C(C(=O)O)=CC[C@H]2c2ccc3c(c2)OCO3)cc1	i	/	-4.2	0.7	2.3	-14	-48	14	2%
46	CCCn1c(SCC(=O)NC2CCC(C)CC2)n[nH]c1=O (configuration not stated)	i	3	0.1	0.69	0.1	-1	8	-1.4	8%
47	CN(C)CCCNC(=O)c1ccc(Cl)c(S(=O)(=O)N2CCCCCC2)c1	i	-5	-1.3	0.7	3.9	8	10	0.2	-1%
48	C[C@H](O)C#Cc1cnc2c(c1)C(=O)N([C@@H](C)CO)C[C@@H](C)[C@@H](CN(C)C(=O)Nc1ccc(C(F)(F)F)cc1)O2	i	/	/	/	-1.8	4	-6	-1.5	/
49	O=S(=O)(NCCN1CCOCC1)c1cccs1	/	-2	12	0.72	-1.5	12	25	3.7	5%
50	N#C[C@H]1[C@@H](c2ccc(/C=C/c3ccccc3)cc2)[C@@H](CO)N1C(=O)C1CCCCC1	i	/	/	/	1.1	1	-2	0.2	/
51	COc1ccc2ccccc2c1/C=N\n1c(C)cc(C)c(C(N)=O)c1=O	/	-4	-0.3	/	/	/	/	/	-3%
52	O=C(C[C@@H]1CC[C@H](NC(=O)CN2CCOCC2)[C@@H](CO)O1)NC1CCCCC1	i	/	/	/	-1.5	0	-7	-1.6	/
53	CC1=C(C(=O)Nc2cccc(C(=O)NCc3ccccc3C)c2)SCCO1	i	0	2.1	0.67	-12	0	-6	-2.3	-2%
54	CCOC(=O)Cc1csc(SCC(=O)c2c(N)n(CC(C)C)c(=O)n(C)c2=O)n1	/	-5	8.3	0.66	/	/	/	/	8%
55	C[C@@H]1CCCCO[C@H](CN(C)Cc2ccncc2)[C@H](C)CN([C@@H](C)CO)C(=O)c2cc(NC(=O)Nc3ccc(C(F)(F)F)cc3)ccc2O1	i	/	/	/	1.0	3	-12	12	/
56	Cc1ccc(C(C)(C)C)c(OCCCCN2CCCC2)c1	/	/	-0.6	0.65	/	/	/	/	-1%

# A portion of the library (hit frequency here may not be typical).
